Mtb H37Rv = M. tuberculosis H37Rv growth inhibitors, H37Rv strain (AID 1626) | M. tuberculosis H37Rv growth inhibition; higher % means a stronger effect | 220,000 compounds, 0.95% hits | inhibition, % at 10 µM, or IC50 in µM where a hit was titrated;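 active means confirmed in a dose series; inconclusive means inhibition above 80% but not taken into the dose series; inactive means below 80% or under 30% at every dose of the series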;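 further: bacteria incubated seven days before Alamar blue readout; 0% = bacteria only wells and 100% = bacteria with antibiotic wells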
Mtb betalactam = beta-lactam sensitization of Mtb H37Rv, H37Rv. 330,000 compounds, 0.27% hits. M. tuberculosis H37Rv growth with meropenem, percent inhibition; hits of this screen are not shown here. inhibition, % at 25 µM;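 active means about 74% or more and at least 40 points above the plate without the antibiotic, then above 30% in a dose series; inconclusive means first-round hits that could not be retested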;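 further: growth measured after seven days incubation then overnight dye step; 0% = bacteria only wells and 100% = bacteria with antibiotic; twin plates without the antibiotic show which effects depend on it; some results filed as inactive read as strong as hits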
Arbovirus inh = antivirals against arbovirus infection, primary screen, cell-based, full library, 10K replicate subset; arbovirus infection cell-based antiviral screen; inhibition, % at 10 µM; 200,000 compounds, 0.37% hits; AID 1251, 2008;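 active means inhibition from about 30%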;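 further: bluetongue infection of BSR cells; cell survival read as ATP light after 72 h; 0% = infected wells without compound and 100% = uninfected wells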
YopH PTP inh = YopH tyrosine phosphatase inhibitors, primary screen, biochemical, fluorescence Ex485/Em525; inhibition, %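 (about 10 µM by stock and volumes)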; YopH tyrosine phosphatase [Yersinia enterocolitica]; 140,000 compounds, 0.16% hits;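 active means inhibition of 50% or more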;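 further: controls were vehicle for no effect and minimum signal wells for full effect; inactives centre near -20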
RecA intein inh = Mtb RecA intein splicing inhibitors, primary screen, biochemical, fluorescence, HTS. cell-free RecA intein splicing. inhibition, %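 (about 9 µM by stock and volumes)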. 290,000 compounds, 0.75% hits. AID 2221, 2009. Protein RecA (Mycobacterium tuberculosis (strain ATCC 25618 / H37Rv)), P9WHJ3; in the data active means inhibition above about 30%; inconclusive means no clear call, values can overlap the other calls;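 further: 0% = vehicle wells and 100% = reference inhibitor control wells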
Target sequence (P9WHJ3 whole entry, looked up): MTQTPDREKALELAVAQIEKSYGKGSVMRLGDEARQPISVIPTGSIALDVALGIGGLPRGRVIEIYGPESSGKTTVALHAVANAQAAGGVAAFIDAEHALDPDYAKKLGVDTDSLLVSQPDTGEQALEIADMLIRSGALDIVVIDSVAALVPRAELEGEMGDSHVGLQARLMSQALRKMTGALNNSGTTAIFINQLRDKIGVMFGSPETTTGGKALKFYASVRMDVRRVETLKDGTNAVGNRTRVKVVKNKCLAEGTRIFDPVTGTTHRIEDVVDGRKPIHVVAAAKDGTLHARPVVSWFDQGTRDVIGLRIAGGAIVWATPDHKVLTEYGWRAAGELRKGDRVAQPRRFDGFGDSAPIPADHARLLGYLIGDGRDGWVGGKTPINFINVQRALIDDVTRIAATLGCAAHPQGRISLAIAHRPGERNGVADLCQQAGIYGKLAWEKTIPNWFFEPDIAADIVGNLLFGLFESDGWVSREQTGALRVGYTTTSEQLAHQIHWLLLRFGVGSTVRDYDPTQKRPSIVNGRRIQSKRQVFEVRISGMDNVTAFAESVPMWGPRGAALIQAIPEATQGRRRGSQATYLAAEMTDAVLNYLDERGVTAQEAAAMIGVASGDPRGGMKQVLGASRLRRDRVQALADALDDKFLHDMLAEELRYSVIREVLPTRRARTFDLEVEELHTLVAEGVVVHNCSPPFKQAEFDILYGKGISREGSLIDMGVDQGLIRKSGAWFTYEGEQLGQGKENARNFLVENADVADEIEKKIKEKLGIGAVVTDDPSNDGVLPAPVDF
Arbovirus inh repeat = further read-out of Arbovirus inh, marked with its call; inhibition, %; measured here: 10K subset replicate screen; many hits read low in the repeat;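 first of two repeat runs on a subset; 0% = infected and 100% = uninfected wells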
The depositor's hits bear a star; ? = inconclusive; . = no result given. Not all compounds are listed (hit frequency here may not be typical).

SMILES | Mtb H37Rv | Mtb betalactam | Arbovirus inh | YopH PTP inh | RecA intein inh | others
COc1cc(/C=N/NC(=O)c2nnn(-c3nonc3N)c2C(C)C)ccc1OCc1ccccc1 | . | 94 | . | . | 6.1
O=c1[nH]c(=O)n(-c2ccc(F)cc2)c2c1C(C(F)(F)F)(C(F)(F)F)N=C(c1ccc(F)cc1)N2 | 2% | -1 | 28 | -11 | -0.6
CC(=O)c1cccc(NC(=O)N2CCCC2C(=O)NCc2ccccc2)c1 (stereo not drawn) | -1% | -5 | 12 | -32 | -0.8 | Arbovirus inh repeat=-4
COC(=O)c1cn(CCC#N)nc1-c1ccc2ccccc2c1 | . | -7 | . | . | 3.2
CCN(c1ccc(NC(=O)COC(=O)c2ccc(C)c(S(=O)(=O)N3CCOCC3)c2)cc1)C(C)C | -2% | 3 | -2 | -4 | -5.5
Cc1nn(CC(O)COc2ccc3c(c2)CCC3)c(C)c1C (stereo not drawn) | 34% | 17 | 10 | -2 | 2.7
O=C(CN1CCCCC1)Nc1cccc(Cl)c1 | 3% | -4 | 3 | . | -4.8
CCn1cc(C(=O)Nc2ccc(OC)c(OC)c2)c2cc(OC)c(OC)cc2c1=O | -10% | ? | 1 | 3 | -2.8
COc1ccc(NC(=O)C(=O)NCCN2CCN(C(=O)c3ccc(C)cc3)CC2)cc1 | . | -1 | . | . | -0.2
O=C(COC(=O)c1ccc[nH]c1=O)NCCc1ccc(Cl)cc1Cl | -10% | -3 | . | . | 0.4
COCC(C)n1c(SCc2ccc(OC)c(F)c2)nc2ccccc2c1=O (stereo not drawn) | 0% | . | 14 | . | 13
COC(=O)C1=C(N)Oc2cc(C)n(Cc3cccnc3)c(=O)c2C1c1ccc(OC)c(OC)c1OC (stereo not drawn) | 2% | -8 | 5 | -44 | -4.7
CCCC(=O)Nc1c(O)c2ccccc2[nH]c1=O | -4% | 5 | 13 | -36 | -4.2
Cc1onc(-c2c(Cl)cccc2Cl)c1C(O)c1ccc(F)cc1 (stereo not drawn) | . | 3 | . | . | 1.5
CCn1cc(CN2CCC(n3nccc3NC(=O)c3ccccc3C)CC2)c(C)n1 | . | -4 | . | . | -0.9

As a short view, three of the compounds above.
SMILES | Mtb H37Rv | Mtb betalactam | Arbovirus inh | YopH PTP inh | RecA intein inh | others
O=c1[nH]c(=O)n(-c2ccc(F)cc2)c2c1C(C(F)(F)F)(C(F)(F)F)N=C(c1ccc(F)cc1)N2 | 2% | -1 | 28 | -11 | -0.6
CC(=O)c1cccc(NC(=O)N2CCCC2C(=O)NCc2ccccc2)c1 (stereo not drawn) | -1% | -5 | 12 | -32 | -0.8 | Arbovirus inh repeat=-4
COC(=O)c1cn(CCC#N)nc1-c1ccc2ccccc2c1 | . | -7 | . | . | 3.2

Remaining list, next part
SMILES | Mtb H37Rv | Mtb betalactam | Arbovirus inh | YopH PTP inh | RecA intein inh | others
O=C(CN1CCN(c2ccccc2F)CC1)c1ccc(O)cc1O | . | 4 | . | . | -7.2
CCCc1nnc(NC(=O)C23CC4CC(CC(C4)C2)C3)s1 | . | 1 | . | . | 1.6
CC1(C)CC(=O)C2=C(C1)OC(N)=C(C#N)C21CCN(C(=O)OCc2ccccc2)CC1 | -5% | -7 | -2 | -2 | 0.3
CC1CCN(C(=O)COC(=O)CCc2c[nH]c3ccccc23)CC1 | 0.34µM* | 100 | 1 | . | 1.1
Cc1ccc(OCC(=O)Nc2nnc(S(=O)(=O)N3CCCCCC3)s2)cc1C | . | -2 | . | . | -0.5
Cc1ccc(C23OC(=O)C(C)(C)C2OC(=O)C3(C)C)cc1 (stereo not drawn) | -9% | -9 | 4 | -4 | -3.2
CCn1c2ccccc2c2cc(C3C(C#N)=C(C)NC(C)=C3C#N)ccc21 | 4% | 4 | -2 | -42 | -7.8
Cc1cc(S(=O)(=O)N2CCCC2)ccc1OCC(=O)NC1CCCC1 | 6% | -1 | 1 | . | 0.2
NC(=O)C1CCN(C(=O)/C=C/c2cccc(Br)c2)CC1 | . | -6 | . | . | -2.1
CS(=O)(=O)N(Cc1ccco1)CC(O)Cn1c2ccccc2c2ccccc21 (stereo not drawn) | 1% | -3 | 19 | -106 | 4.3 | Arbovirus inh repeat=10
CCOc1ccccc1N1CCN(S(=O)(=O)c2cccc3nsnc23)CC1 | 2% | 6 | 7 | -7 | 3.6
CC(Oc1ccc2c(c1)oc(=O)c1ccccc12)C(=O)NCCCN1CCOCC1 (stereo not drawn) | . | -1 | . | . | -0.2
O=C(CCCN1C(=O)/C(=C/c2cccs2)SC1=S)Nc1cccnc1 | -2% | -5 | -1 | . | 1.1
Cc1ccc(S(=O)(=O)N(C)CCCC(=O)NCc2ccc3c(c2)OCO3)cc1 | 3% | 4 | -19 | 30 | -2.4
Cc1nc2ccc(-n3ccc(=O)cc3)cc2s1 | 0% | 6 | -10 | -12 | 1.6
O=C(NCc1cc(C(F)(F)F)cc(C(F)(F)F)c1)C1CC(c2ccccc2C(F)(F)F)=NO1 (stereo not drawn) | . | 4 | . | . | 0.9
CC(C)(C)n1nnnc1C(c1ccccc1F)N1CCN(C(=O)c2ccco2)CC1 (stereo not drawn) | . | -1 | . | . | 3.1
O=[N+]([O-])c1ccc(N2CCOCC2)c2ccncc12 | 4% | 3 | 12 | . | 30*
O=C(c1ccc(Cl)c(S(=O)(=O)N2CCCC2)c1)N1CCN(c2ccccc2)CC1 | 6% | -4 | 2 | . | 1.0
COc1ccc(NC(=O)Cc2ccc(-c3ccccc3)cc2)cn1 | 3% | 5 | -11 | . | -1.3
COc1ccc(OC)c(S(=O)(=O)NC(N)=NCCc2ccccc2)c1 | -3% | 0 | 1 | . | -2.3
CC(C)(C)OC(=O)C(Cl)(C(=O)OC(C)(C)C)c1ccc2nnnn2n1 | 57% | . | 3 | . | 1.4
O=C1NC2(CCCCC2)C(=O)N1Cc1ccc([N+](=O)[O-])cc1 | -3% | 10 | 3 | -28 | 0.8
CCn1c(NC(=O)Nc2ccccc2OC)nc2ccccc21 | 82% | 83 | 8 | -18 | 1.0
Cc1cnc(C(=O)OCC(=O)N2c3ccccc3CC2C)cn1 (stereo not drawn) | -8% | 5 | 1 | . | -2.4
Cc1ncc([N+](=O)[O-])n1Cc1cccc2ccccc12 | 2% | 0 | 2 | -11 | -0.5
Cc1ccc(NC(=O)CN(C)C(=O)c2ccc(COc3ccccc3)cc2)cc1 | . | 4 | . | . | -0.6
CCc1cccc(CC)c1N(COC)C(=O)Cn1nnc2ccccc21 | 1% | -19 | 4 | -9 | 3.2
CCCCn1c(=O)[nH]c(=O)c2c1nc(-c1ccncc1)n2CCOC | 0% | -4 | 6 | 15 | -0.1
O=C(Nc1ccccc1)N1CCCC1 | -2% | -10 | -1 | -1 | 1.0

Pulled one by one from the entries so far:
SMILES | Mtb H37Rv | Mtb betalactam | Arbovirus inh | YopH PTP inh | RecA intein inh | others
CC(C)(C)OC(=O)C(Cl)(C(=O)OC(C)(C)C)c1ccc2nnnn2n1 | 57% | . | 3 | . | 1.4
O=C1NC2(CCCCC2)C(=O)N1Cc1ccc([N+](=O)[O-])cc1 | -3% | 10 | 3 | -28 | 0.8
O=C(c1ccc(Cl)c(S(=O)(=O)N2CCCC2)c1)N1CCN(c2ccccc2)CC1 | 6% | -4 | 2 | . | 1.0
CCc1cccc(CC)c1N(COC)C(=O)Cn1nnc2ccccc21 | 1% | -19 | 4 | -9 | 3.2

Other structures
SMILES | Mtb H37Rv | Mtb betalactam | Arbovirus inh | YopH PTP inh | RecA intein inh | others
Cc1ccsc1/C=N/Nc1nc(=O)[nH]nc1C | ? | 98 | -9 | . | -12
COc1ccc(NC(=O)CSc2nccn2Cc2ccco2)cc1 | . | ? | . | . | 2.7
CCOc1ccc(S(=O)(=O)NCCC(=O)OC(C)C(=O)N2CCc3ccccc32)cc1 (stereo not drawn) | -7% | 4 | 8 | -44 | 5.4
CCOC(=O)c1c[nH]c(=S)n(-c2ccccc2)c1=O | . | -5 | . | . | -2.6
Cc1nc2ccccn2c1C(=O)NN=C1C2CC3CC(C2)CC1C3 | 2% | 3 | -13 | -22 | -1.0
Cc1ccc(S(=O)(=O)N2CCCOC2CNC(=O)C(=O)NCc2cccnc2)cc1 (stereo not drawn) | -2% | 3 | 10 | -14 | -0.7
CCCCOc1ccc(C(=O)NCC(=O)NCc2ccncc2)cc1 | . | 4 | . | . | -2.2
O=C(NC1CC1)C1CCCN1C(=O)NC1CCCCC1 (stereo not drawn) | 8% | 0 | -1 | . | -5.0
COc1ccc(N2CCN(C(CNS(C)(=O)=O)c3ccco3)CC2)cc1 (stereo not drawn) | 1% | -5 | 11 | . | -5.1
O=C(CSc1ccccc1F)NC(=O)NCc1ccco1 | -9% | -9 | 0 | . | -0.3
Cc1ccc(S(=O)(=O)N(C)CC(=O)N2CCc3ccccc32)cc1 | -3% | 2 | -7 | -4 | 0.9
CCOC(=O)c1ccc(NC(=O)NCc2ccccn2)cc1 | . | -9 | . | . | -0.3
CC(C)(C)C1(O)CC(C(F)(F)F)=NN1C(=O)CCCc1ccccc1 (stereo not drawn) | 8% | -1 | 11 | . | 0.0
CCOC(=O)c1cnn(-c2nc(CC)nc3sc4c(c23)CCC4)c1N | 3% | -4 | 0 | -4 | 3.3
Cc1cc(-c2csc(N)n2)c(C)n1Cc1ccco1 | 3% | 1 | -17 | . | 7.1

Next section (two carried over from the part before).
SMILES | Mtb H37Rv | Mtb betalactam | Arbovirus inh | YopH PTP inh | RecA intein inh | others
CCOC(=O)c1cnn(-c2nc(CC)nc3sc4c(c23)CCC4)c1N | 3% | -4 | 0 | -4 | 3.3
Cc1cc(-c2csc(N)n2)c(C)n1Cc1ccco1 | 3% | 1 | -17 | . | 7.1
COc1cc2[nH]c(=O)n(Cc3ccc(C(=O)NCCCN4CCN(C)CC4)cc3)c(=O)c2cc1OC | -2% | 5 | 4 | 2 | -2.9
CC1CCCN(S(=O)(=O)c2ccc(NC(=O)CN3C(=O)NC(C)(c4ccccc4)C3=O)cc2)C1 (stereo not drawn) | . | -3 | . | . | 3.6
CCOc1ncccc1C(=O)OCc1ccc([N+](=O)[O-])cc1 | -13% | 1 | 2 | . | 0.3
O=C(CN1CCN(Cc2ccc3c(c2)OCO3)CC1)N1CCc2[nH]c3ccccc3c2C1 | 78% | . | 6 | -24 | -11
NC(=O)CCCn1c(C(=O)c2cc(Cl)c(N)c(Cl)c2)c2ccc(C(F)(F)F)cc2[n+]1[O-] | . | 59 | . | . | 3.9
CCCCN1CC(=O)N2[C@H](c3ccc(Cl)cc3)[C@@H]3C(=O)N(CC)C(=O)[C@@H]3[C@]2(Cc2ccccc2)C1=O | . | -3 | . | . | -1.2
O=C(N/N=C/c1cccnc1)c1cc(-c2ccccc2)nc2ccccc12 | . | 6 | . | . | 3.2
COc1ccc(OCC(=O)Nc2cccc(C(C)=O)c2)cc1 | . | 3 | -3 | -33 | 0.7 | Arbovirus inh repeat=-3
CCn1cc(C(=O)NCCCN2CC(C)CC(C)C2)c(=O)c2cc(S(=O)(=O)N(C)C3CCCCC3)ccc21 (stereo not drawn) | . | 6 | . | . | 0.0
CC(C)c1nnc(NC(=O)CCC(=O)N2CCN(C3CCCCC3)CC2)s1 | 1% | 3 | 8 | -4 | -0.2
O=C(N/N=C/c1cn[nH]c1-c1ccccc1)c1ccco1 | -9% | 2 | -2 | . | 5.7
Cc1ccc(/C=C/C(=O)c2ccc(O)cc2)cc1 | 12% | 29 | . | . | 1.5
Cc1c(NC(=O)CCN2C(=O)c3ccccc3C2=O)c(=O)n(-c2ccccc2)n1C | -4% | -5 | -1 | -27 | -0.7
CCCCNC(=S)NNC(=O)c1cc(-c2ccncc2)nc2ccccc12 | . | 10 | . | . | 2.6

Entries from the list above that have a thiophene ring, fused or not (3):
SMILES | Mtb H37Rv | Mtb betalactam | Arbovirus inh | YopH PTP inh | RecA intein inh | others
O=C(CCCN1C(=O)/C(=C/c2cccs2)SC1=S)Nc1cccnc1 | -2% | -5 | -1 | . | 1.1
Cc1ccsc1/C=N/Nc1nc(=O)[nH]nc1C | ? | 98 | -9 | . | -12
CCOC(=O)c1cnn(-c2nc(CC)nc3sc4c(c23)CCC4)c1N | 3% | -4 | 0 | -4 | 3.3

Bioassay records: PubChem BioAssay, several laboratories
